Bioassay records: PubChem, several laboratories
MT1-MMP act inh: blocks activation of human MT1-MMP. P50281. HT1080 RFP-PRO-GFP cells, GFP/RFP ratio fluorescence, overnight; percent of plate control window, DMSO zero. GFP/RFP ratio change, % at 20 µM. 0.061% of 360,000 active. AID 651647;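 active = GFP/RFP ratio change of at least 30% with cell ATP level not reduced by more than half and red fluorescence within 50% of control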; note: strong numbers were not always called active
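Read-out: GFP/RFP fluorescence ratio; Test system: RFP-PRO-GFP reporter HT1080 cells; Compound dosing: single-point 20 µM compound, 1% DMSO; Times: overnight compound exposure at 37 °C.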
CSC inhib: cancer stem cell inhibition; inhibition, % at 7.5 µM; 1.1% of 300,000 active; cancer stem cell-like cells viability, luminescence; AID 2717;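 active = mean at 75% or more and at least half the replicates too; inconclusive = mean and replicates disagree; tested in HMLE shEcad cells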;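 note: 0% = median of negative and 100% = median of positive control wells; the first replicate is given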
PABP polyA inh: blocks human PABP binding to poly(A) RNA; fluorescence polarization; P11940; 1% of 290,000 active; inhibition, % at 35 µM;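 active = 50% or more with normal probe brightness, or confirmed in later tests; inconclusive = above 50% with abnormal brightness, or retests that disagree; inactive = below 50% or failed in later tests; about a fifth of its hits are not listed in these tables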;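 note: calls also rest on retests at 20 µM and on dose response follow-up; controls were probe without protein and protein plus probe with vehicle; some compounds called inactive have numbers as strong as hits; many hits fall short of the cut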
UUG fidelity: yeast start codon fidelity modulation. S. cerevisiae UUG-firefly luciferase reporter, luminescence/redox ratio. activity score, % at 18.7 µM. 0.13% of 350,000 active. AID 602363;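 active = replicate mean at a twofold rise or more, about +100% in these data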;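 note: firefly luciferase made from a UUG start codon reports start codon fidelity; reporter light over untreated wells divided by growth signal over untreated wells; some hits fall short of that in this replicate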
eIF4H FP inh: inhibitors of RNA binding by human eIF4H | 0.94% of 290,000 active | eIF4H fluorescence polarization binding assay | Q15056 | inhibition, % at 35 µM;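 active = 50% or more with normal probe brightness, or confirmed in later tests; inconclusive = above 50% with abnormal brightness, or retests that disagree; inactive = below 50% or failed in later tests; about a fifth of its hits are not listed in these tables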;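 note: calls also rest on retests at 20 µM and on dose response follow-up; 0% = protein and probe with vehicle and 100% = probe without protein; strong numbers were not always called active; many hits fall short of the cut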
Env fusion inh: HIV envelope-mediated fusion inhibition. 1.1% of 360,000 active. inhibition, % at 12.3 µM. HeLa-JRFL Env/CEM21 cell fusion, luciferase. AID 651610;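 active = mean replicate inhibition score of at least 50 and every replicate individually at or above 50; inconclusive = only one of the two criteria met; inactive = mean below 50 and not all replicates reaching 50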;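 note: 0% = plate neutral controls and 100% = maraviroc near 300 nM; one replicate is shown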
Rce1 inh: inhibitors of yeast Ras-converting enzyme | AID 2563 | yeast membranes, quenched prenylated peptide cleavage fluorescence | 0.27% of 290,000 active | calls only | Q03530;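 active = fall in fluorescence gain of 50% or more versus controls, with final raw signal at or below 3038400; inconclusive = same 50% fall but final raw signal above 3038400; inactive = fall in fluorescence gain under 50%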;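 note: plate controls were neutral control wells for no effect and wells lacking membranes for full effect; tested at 10 µM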
Target sequence (Q03530 whole entry, looked up): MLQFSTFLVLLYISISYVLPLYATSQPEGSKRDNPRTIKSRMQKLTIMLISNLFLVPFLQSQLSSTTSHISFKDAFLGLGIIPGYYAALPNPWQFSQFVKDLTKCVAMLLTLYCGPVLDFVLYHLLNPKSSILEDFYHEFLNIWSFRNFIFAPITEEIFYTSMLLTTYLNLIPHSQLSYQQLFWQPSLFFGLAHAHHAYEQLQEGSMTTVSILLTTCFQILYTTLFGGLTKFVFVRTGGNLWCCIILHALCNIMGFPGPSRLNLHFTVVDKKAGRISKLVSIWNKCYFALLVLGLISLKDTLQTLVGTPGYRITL
MT1-MMP act inh RFP: recorded beside MT1-MMP act inh, whose call it bears; RFP signal change, %; measured here: RFP expression control read;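 0 = vehicle wells; hits needed this value within 50% of zero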
Numbers without * were called inactive; i = inactive; ? = inconclusive; / = no result given. Not all compounds are listed (hit frequency here may not be typical).

SMILES	MT1-MMP act inh	MT1-MMP act inh RFP	CSC inhib	PABP polyA inh	UUG fidelity	eIF4H FP inh	Env fusion inh	Rce1 inh
COc1ccc(CNC(=O)COC(=O)c2ccccc2C(=O)c2ccccc2)cc1	-8	2	13	0	/	-1	19	i
COC(=O)CNC(c1ccccc1)c1cc(Br)ccc1NC(=O)CCN1CCOCC1 (configuration not stated)	2	-2	18	4	/	-9	7	i
CC(=O)Nc1ccc2c(c1)OCCO2	5	10	1	-7	/	-6	/	i
CC(C)(C)c1[nH]nc2c1C(c1ccsc1)C(C#N)=C(N)O2 (configuration not stated)	3	8	-4	-7	/	4	12	i
COc1cccc(NC(=S)N/N=C2\CC(C)(C)Oc3ccc(O)cc32)c1	2	-6	-2	-6	/	7	26	/
NC(=O)C1(Nc2ccccc2)CCCC1	0	-2	/	/	-8	/	1	/
O=C(Nc1ccc(C(=O)N2CCCCC2)cc1)c1ccccc1Br	-1	-3	-3	13	1	0	-10	i
Cc1ccc(SCC(=O)O/N=C(\N)c2ccc([N+](=O)[O-])cc2)cc1	-7	-7	8	3	-20	-6	-107	i
COc1cc2c(cc1OC)CN(C(=O)c1ccc(OC)c(S(=O)(=O)N3CCCC3)c1)CC2	-2	-4	/	/	4	/	25	/
CC(C)OC(=O)CSc1nnc(-c2cnccn2)n1Cc1ccco1	8	-3	-11	-3	/	-8	/	i
O=C1CCc2cc(S(=O)(=O)N3CCC(C(=O)NC4CCCC4)CC3)ccc2N1	-2	0	-7	7	-2	11	26	i
COc1ccc(CN2CCC(=O)N([C@H](CO)CC(C)C)CC2)cc1	1	3	-3	0	-8	-7	7	i
COc1ccc(CCN2CC(C(=O)Nc3cccc(C(C)=O)c3)CC2=O)cc1OC (configuration not stated)	-7	0	-4	2	5	-5	1	/
CCn1c(CN2CCN(Cc3ccc(C)cc3)C(CCO)C2)nc2ccccc21 (configuration not stated)	-3	2	-6	-6	-21	-2	1	i
Cc1ccc2c(C)nc(N/C(N)=N/S(=O)(=O)c3ccccc3)nc2c1	2	5	7	-7	-11	-2	-67	i
Cc1cc(=O)oc2c(C)cc(C(C)(C)C)cc12	-1	-6	/	/	-7	/	-56	/
O=C(CCNS(=O)(=O)c1ccccc1)NNC(=O)c1csc(N2CCOCC2)n1	-4	-3	/	/	/	/	2	i
COc1ccc(-c2cnc(C(O)c3ccc(C(C)(C)C)cc3)[nH]2)cc1 (configuration not stated)	1	1	/	/	-7	/	10	/
COC(=O)c1ccc(-n2c(C)ccc2-c2ccccc2)cc1	-1	0	11	3	-9	-2	/	i
O=C(O)CCC(=O)N1N=C(c2ccc(Br)cc2)CC1c1cccc(Br)c1 (configuration not stated)	3	-2	-5	-15	-16	-9	0	i

Entries of single compounds, looked up by structure. Values in the order: MT1-MMP act inh | MT1-MMP act inh RFP | CSC inhib | PABP polyA inh | UUG fidelity | eIF4H FP inh | Env fusion inh | Rce1 inh
Listed for CC(C)(C)c1[nH]nc2c1C(c1ccsc1)C(C#N)=C(N)O2 (configuration not stated) → 3 | 8 | -4 | -7 | / | 4 | 12 | i
Listed for O=C(CCNS(=O)(=O)c1ccccc1)NNC(=O)c1csc(N2CCOCC2)n1 → -4 | -3 | / | / | / | / | 2 | i
Listed for COc1ccc(CNC(=O)COC(=O)c2ccccc2C(=O)c2ccccc2)cc1 → -8 | 2 | 13 | 0 | / | -1 | 19 | i
Listed for COc1cccc(NC(=S)N/N=C2\CC(C)(C)Oc3ccc(O)cc32)c1 → 2 | -6 | -2 | -6 | / | 7 | 26 | /

Two entries from above, with each value named:
compound: COc1ccc(CCN2CC(C(=O)Nc3cccc(C(C)=O)c3)CC2=O)cc1OC (configuration not stated)
- MT1-MMP act inh: -7
- MT1-MMP act inh RFP: 0
- CSC inhib: -4
- PABP polyA inh: 2
- UUG fidelity: 5
- eIF4H FP inh: -5
- Env fusion inh: 1
- Rce1 inh: /
compound: CCn1c(CN2CCN(Cc3ccc(C)cc3)C(CCO)C2)nc2ccccc21 (configuration not stated)
- MT1-MMP act inh: -3
- MT1-MMP act inh RFP: 2
- CSC inhib: -6
- PABP polyA inh: -6
- UUG fidelity: -21
- eIF4H FP inh: -2
- Env fusion inh: 1
- Rce1 inh: i

(listing goes on)
SMILES	MT1-MMP act inh	MT1-MMP act inh RFP	CSC inhib	PABP polyA inh	UUG fidelity	eIF4H FP inh	Env fusion inh	Rce1 inh
Cc1cccn2c(=O)c(C=NCc3ccccc3)c(NCCO)nc12	-1	-1	-2	-2	-21	-6	/	i
COCCN1CC(CNC(=O)c2cc(COc3ccccc3SC)on2)CC1=O (configuration not stated)	-3	0	-2	-7	-2	-5	/	i
CCc1cc(C(=O)OC)c(N2C(=O)C3C4C=CC(C4)C3C2=O)s1 (configuration not stated)	-1	5	5	2	-9	0	-50	i
CC(C)CC(NC(=O)OC(C)(C)C)c1cn([C@@H](CCCCNC(=O)OC(C)(C)C)C(=O)N2CCN(C(=O)OC(C)(C)C)CC2)nn1 (some centres not stated)	3	-2	1	5	26	-10	32	i
COc1ccc(C(=O)OCC(=O)Nc2ccc(F)c(F)c2F)cc1OC	10	2	-9	2	-24	-2	-67	i
COc1ccc(S(=O)(=O)N2CCOCC2)cc1C(=O)N(C)CCOc1ccc(Cl)cc1	1	-15	/	/	-8	/	5	/
O=c1c2ccccc2cnn1Cc1n[nH]c(=S)n1C1CC2CCC1C2 (configuration not stated)	7	-10	-6	-12	/	6	1	i
CC1CCC2C(=O)N(c3ccc(NC4CCN(Cc5ccccc5)CC4)c([N+](=O)[O-])c3)C(=O)C2C1 (configuration not stated)	17	-3	26	10	33	21	8	i
O=C1NCCN/C1=C\C(=O)c1ccc(Br)cc1	4	-5	0	-3	-9	-6	-41	i
CCc1cc2c(=O)c(-c3ccc(F)cc3)c(C(F)(F)F)oc2cc1OCC(=O)O	/	/	-2	3	/	-2	/	i
CCOc1ccc(C2c3c(oc4ccccc4c3=O)C(=O)N2c2ccc(C)cn2)cc1OC (configuration not stated)	1	-2	-1	-11	-11	10	8	i
COc1ccccc1N(CC(=O)N1CCCCC1)S(=O)(=O)c1ccccc1	2	2	-5	-13	-3	4	-23	i
Cc1cc(Oc2ccc(N)cn2)cc(C)c1Cl	-11	-3	17	?	-16	?	-9	i
CCCn1c(SCC(=O)Nc2ccc3c(c2)OCCO3)n[nH]c1=O	2	1	/	/	-3	/	6	/
O=C(COc1ccccc1)Nc1nnc(-c2ccc(F)cc2)o1	-4	0	1	0	-16	2	-48	i
Clc1ccc(CNc2cnccn2)cc1Cl	-1	0	20	-6	-13	-7	3	i
CCOc1ccc(CCN2C(=O)C(=O)N([C@@H](Cc3ccc(O)cc3)CN3CCC[C@@H]3CN3C(=O)C(=O)NC[C@@H]3Cc3ccccc3)C[C@@H]2Cc2ccccc2)cc1	-1	-7	/	/	14	/	14	/
COc1cccc(N2C(=O)Nc3ccc(Br)cc3C2(O)C(=O)NCCN(C)C)c1 (configuration not stated)	0	2	8	-1	-11	2	-10	i
COc1ccc(/C(N)=N/OC(=O)C2CCCCC2)cc1	-5	-5	-4	5	12	-7	i	i
CC1(NC(=O)CCc2ccccc2)CCN(CCCc2ccccc2)C1=O (configuration not stated)	2	1	-3	/	-3	/	-6	/

Part of the list above, in markdown.
| mol | MT1-MMP act inh | MT1-MMP act inh RFP | CSC inhib | PABP polyA inh | UUG fidelity | eIF4H FP inh | Env fusion inh | Rce1 inh |
| --- | --- | --- | --- | --- | --- | --- | --- | --- |
| CCOc1ccc(C2c3c(oc4ccccc4c3=O)C(=O)N2c2ccc(C)cn2)cc1OC (configuration not stated) | 1 | -2 | -1 | -11 | -11 | 10 | 8 | i |
| COc1ccccc1N(CC(=O)N1CCCCC1)S(=O)(=O)c1ccccc1 | 2 | 2 | -5 | -13 | -3 | 4 | -23 | i |
| Cc1cc(Oc2ccc(N)cn2)cc(C)c1Cl | -11 | -3 | 17 | ? | -16 | ? | -9 | i |
| CCCn1c(SCC(=O)Nc2ccc3c(c2)OCCO3)n[nH]c1=O | 2 | 1 | / | / | -3 | / | 6 | / |

New compounds follow
SMILES	MT1-MMP act inh	MT1-MMP act inh RFP	CSC inhib	PABP polyA inh	UUG fidelity	eIF4H FP inh	Env fusion inh	Rce1 inh
N=c1c2c(ncn1Cc1ccco1)Oc1cc(O)ccc1C2c1ccccc1 (configuration not stated)	-36	-10	9	25	-18	44	15	i
O=C(O)C1CCN(c2c([N+](=O)[O-])cc(C(F)(F)F)cc2[N+](=O)[O-])CC1	-1	-2	-4	-5	-11	-5	-27	i
CCOc1ccccc1NC(=O)CSc1nnc(CNC(=O)c2ccccc2F)o1	-1	-1	2	7	10	-12	-2	i
CS(=O)(=O)NNC(=O)CN1C(=O)C2C3C=CC(C3)C2C1=O (configuration not stated)	-1	-2	-11	-6	-10	-1	2	i
COC(=O)c1cc2ccccn2c2c(C(=O)OC)c(C(=O)OC)cc1-2	15	-1	-9	15	0	1	/	i
CCOC(=O)c1ccccc1NC(=O)CN1C(=O)c2ccccc2S1(=O)=O	8	5	-2	-1	-22	-4	/	i
CC(C)NS(=O)(=O)c1ccc(OCC(=O)NCc2ccco2)cc1	2	5	-10	-2	10	2	-4	i
O=[N+]([O-])c1cccc(OCCCN2CCC(Cc3ccccc3)CC2)c1	5	7	49	/	11	/	-3	i
O=C(NNc1cc(Cl)cc(Cl)c1)c1c(F)cccc1Cl	0	-2	-5	-4	-3	-3	9	i
Cc1cccc(-c2nc3ccccc3c(=O)n2NC(=O)Cc2ccc(Cl)cc2)c1	-1	0	-22	0	-11	-19	11	i
COc1cccc(C(=O)N2CCC2(C)C(=O)NC(C)C)c1 (configuration not stated)	5	13	/	/	-8	/	19	/
COCCn1c(=NC(=O)c2cc(Cl)sc2Cl)sc2cc(S(N)(=O)=O)ccc21	-5	-7	-2	-10	-13	0	6	i
CC(C)(C)OC(=O)N1CCC(NC(=O)c2[nH]cnc2C(=O)Nc2ccccc2)CC1	/	/	18	/	-9	/	-8	/
O=C(NCc1ccc(F)cc1)c1cnc(-c2ccccn2)nc1C(F)(F)F	-8	-1	5	-16	-32	-15	-13	i
CC1Cc2ccccc2N1CC(=O)NC(c1ccccc1)c1ccccc1 (configuration not stated)	-7	-11	-6	7	/	3	-18	i
O=C(O)C1CC=CCC1C(=O)Nc1cc(Cl)ccc1Cl (configuration not stated)	-1	2	-4	5	-10	12	-13	i
CCCC[N+](C)(C)CCC(=O)NC(C)(C)CS(=O)(=O)[O-]	-1	2	-2	4	/	50	/	i
Nc1[nH]c(N=NC(=O)c2ccccc2)c2ccccc12	1	4	-4	2	/	0	-8	i
CN(C)c1ccc(C(=O)NN2C(=O)c3ccccc3C2=O)cc1	4	5	-1	-5	-2	0	8	i
COC(=O)c1sccc1NC(=O)Cn1nnc(-c2ccc(C)cc2)n1	3	2	4	-8	-14	1	17	i
CSCCC(NC(=O)COc1ccccc1)C(=O)OCCOc1ccc(Br)cc1 (configuration not stated)	-2	-2	12	/	/	/	7	i
NS(=O)(=O)c1cc(C(=O)OCC(=O)Nc2ccc3c(c2)OCO3)ccc1Cl	3	5	-17	/	-22	/	-7	/
CCOc1ccc(S(=O)(=O)N2CCCC(C(=O)NCc3ccccc3)C2)cc1 (configuration not stated)	-3	-10	-9	3	-16	-8	-21	i
CCn1cc(C(=O)Nc2ccc(C)cc2C)c(=O)c2ccc(C)nc21	/	/	9	-5	/	-15	/	i
COc1cccc(NC(=O)c2cc(-c3ccc(OC)cc3OC)nc3ccccc23)c1	0	-1	12	/	-12	/	-2	i
CCOC(=O)c1ccc2nc(C)c(CCC(C)=O)c(Cl)c2c1	-2	-6	25	0	6	-18	/	i
CCN(CC)C1=NS(=O)(=O)c2cc([N+](=O)[O-])ccc21	-3	1	-3	1	6	-2	-3	i
Cc1c(C(=O)N/N=C/c2cccs2)nnn1-c1nonc1N	1	1	-5	3	-11	-9	0	i
